# Cruzain inh Det: inhibitors of Trypanosoma cruzi cruzain with detergent; P25779; purified cruzain, Z-FR-AMC fluorescence, 0.01% Triton; Potency, µM, for inactives: max response, negative = inhibition, actives largely listed as inhibitors; 200,000 compounds, 0.43% hits; AID 1478; active means well fitted curve in the direction sought with a large enough effect; inconclusive means small, poorly fitted or top-dose-only effect, or another doubt; inactive means no such curve, though single readings can be large; an effect the other way counts as inactive or inconclusive;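 further: plate controls were neutral wells for no effect and buffer without enzyme for full effect; nearly all actives have a fitted effect of over 40% in size; top concentration of the series not given in the record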
# Target sequence (P25779 123-467 limits assumed): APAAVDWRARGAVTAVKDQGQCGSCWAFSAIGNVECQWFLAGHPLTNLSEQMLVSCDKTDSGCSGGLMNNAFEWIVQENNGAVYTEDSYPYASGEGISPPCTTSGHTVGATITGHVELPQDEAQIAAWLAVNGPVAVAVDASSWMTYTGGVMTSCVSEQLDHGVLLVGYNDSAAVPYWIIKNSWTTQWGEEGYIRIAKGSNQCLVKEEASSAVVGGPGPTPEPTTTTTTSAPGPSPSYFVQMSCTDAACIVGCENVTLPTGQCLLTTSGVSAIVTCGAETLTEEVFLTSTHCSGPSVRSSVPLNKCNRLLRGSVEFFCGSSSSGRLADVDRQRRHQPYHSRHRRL
#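 Compounds were screened in titration against cruzain (1.5 nM) with 0.01% Triton X-100 to counter colloidal aggregation. Activity was the AMC fluorescence increase over 60 s after adding 2 uM Z-FR-AMC at pH 5.5.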
# Marburg entry inh: blocks Marburg virus binding to or entry into cells. Marburg virus pseudotyped entry inhibition, cell reporter; control for the full effect not named in the record; about a third of the inactives were read at about 46 µM. Potency, µM (top dose mostly 37.8 µM), without a hit: at the top dose activity change, negative = inhibition, most hits filed as inhibitors. 300,000 compounds, 1.8% hits. AID 540276; active = well fitted inhibition curve with a large enough effect; inconclusive = small, poorly fitted or top-dose-only effect, or effect the other way; inactive = flat fitted curve, though single readings scatter; tested in HEK293 cells; about a fifth of its hits are not listed in these tables; further: on the % scale 0 is the no-effect control and ±100 the full control effect; luciferase read-out
# Cruzain noTriton: blocks cruzain activity in detergent-free assay; P25779; purified cruzain, Z-FR-AMC fluorescence, no detergent; Potency, µM, without a hit: max response, negative = inhibition, usual class: inhibitors; 200,000 compounds, 2.3% hits; AID 1476; active means well fitted curve in the direction sought with a large enough effect; inconclusive means small, poorly fitted or top-dose-only effect, or another doubt; inactive means no such curve, though single readings can be large; an effect the other way counts as inactive or inconclusive;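 further: plate controls were enzyme without inhibitor for no effect and buffer without enzyme for full effect; nearly all actives have a fitted effect of over 40% in size; top concentration of the series not given in the record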
#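 Purified cruzain at 1.5 nM, pre-incubated 15 min with compound at room temperature in 100 mM sodium acetate pH 5.5, 5 mM DTT, 0.00005% Triton X-100. Reaction started with 2 uM Z-FR-AMC; AMC fluorescence increase over 60 s gives rate.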
# Lassa entry inh: blocks Lassa virus binding to or entry into cells. Lassa virus pseudotype entry inhibition, cell reporter; control for the full effect not named in the record. Potency, µM (highest dose often 37.9 µM), for inactives: at the highest dose activity change, negative = inhibition, usual class: inhibitors. 300,000 compounds, 1.2% hits; active means well fitted inhibition curve with a large enough effect; inconclusive means small, poorly fitted or top-dose-only effect, or effect the other way; inactive means flat fitted curve, though single readings scatter; tested in HEK293 cells; further: on the % scale 0 is the no-effect control and ±100 the full control effect; nearly all actives have a fitted effect of over 50% in size; luciferase read-out
# NS1 inh: inhibitors of influenza NS1 protein function; S. cerevisiae slowed by influenza A NS1, growth recovery by OD600; Potency, µM (series often up to 46.1 µM), without a hit: at the highest dose activity, positive = more growth; 270,000 compounds, 0.4% hits; AID 2326; further: actives are rising curves; nearly all actives have a fitted effect of over 50% in size
#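 OD600 was taken as the measure of yeast growth restored by compound in an NS1-expressing S. cerevisiae strain. Cells had been washed out of glucose medium and diluted 1:100 into galactose -URA medium, pH 6.0.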
# RE007 growth inh: less growth of the S. pombe RE007 Vpr strain | S. pombe RE007 Vpr strain, BacTiter-Glo ATP luminescence, 24 h; control for the full effect not named in the record | Potency, µM (titrated, usually from 92.2 µM), for inactives: at the highest dose activity change, negative = less growth | 360,000 compounds, 0.21% hits | AID 651644; active = well fitted falling curve with a large enough effect; inconclusive = small, poorly fitted or top-dose-only effect; inactive = no such curve, though single readings can be large or run the other way;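 further: on the % scale 0 is the no-effect control and ±100 the full control effect; nearly all actives have a fitted effect of over 50% in size; the assay follows cell death caused by Vpr and the record does not say whether a fall means rescue or toxicity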
#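 Fission yeast strain RE007, carrying one chromosomally integrated HIV-1 vpr copy, was seeded at OD 0.01 in PMG+AL medium with 23 nL pinned compound. After 24 h at 30 °C and 99% humidity, viability was read by BacTiter-Glo luminescence.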
# 2A StopGo: lowers the luciferase signal of an FMDV 2A StopGo reporter. AID 1159524. human cells with a luciferase reporter of 2A StopGo recoding; control for the full effect not named in the record. 410,000 compounds, 1.2% hits. Potency, µM (series often up to 57.9 µM), for the others: at the top dose signal change, negative = less light; active = well fitted falling curve with a large enough effect; inconclusive = small, poorly fitted or top-dose-only effect; inactive = no such curve, though single readings can be large or run the other way; tested in HEK293T cells; further: on the % scale 0 is the no-effect control and ±100 the full control effect; nearly all actives have a fitted effect of over 45% in size; luciferase light after 4 h
# SARS PLP yeast: inhibitors of SARS-CoV papain-like protease in yeast; S. cerevisiae expressing SARS-CoV PLpro, growth rescue; control for the full effect not named in the record; Potency, µM (highest dose often 32.9 µM), for the others: at the top dose activity, positive = growth rescue; 330,000 compounds, 0.19% hits; AID 485353; further: 0% is about no effect; nearly all actives have a fitted effect of over 55% in size; growth read by luminescence after 48 h
# Active calls of the source: *; ? = inconclusive; . = not tested or not shown; & = joins results of further samples; [ ] = dose if it differs, or a comment. Unless noted, the call rests on the fitted dose curve; in most records, active means well fitted rising curve with a large enough effect; inconclusive means small, poorly fitted or top-dose-only effect; inactive means no such curve, though single readings can be large or run the other way. Potency means the concentration at half of the fitted maximal effect.
# The first 2 entries, ahead of the listing:
# Screens by letter: A = Cruzain inh Det; B = Marburg entry inh; C = Cruzain noTriton; D = Lassa entry inh; E = NS1 inh; F = RE007 growth inh; G = 2A StopGo; H = SARS PLP yeast
COc1ccccc1NC(=O)c1ccccc1NS(=O)(=O)c1cccs1
  A: .; B: 0%[46.1 µM]; C: .; D: -5%[46.1 µM]; E: .; F: -22%; G: -18%; H: -1%
O=C(Cn1c(SCC(=O)Nc2ccc(F)cc2)nc2ccccc21)NCc1ccc(Cl)cc1
  A: -0.9%; B: .; C: ?; D: ?; E: .; F: .; G: -25%; H: .

# All compounds of this part (from the top)
# Screens by letter: A = Cruzain inh Det; B = Marburg entry inh; C = Cruzain noTriton; D = Lassa entry inh; E = NS1 inh; F = RE007 growth inh; G = 2A StopGo; H = SARS PLP yeast
COc1ccccc1NC(=O)c1ccccc1NS(=O)(=O)c1cccs1
  A: .; B: 0%[46.1 µM]; C: .; D: -5%[46.1 µM]; E: .; F: -22%; G: -18%; H: -1%
O=C(Cn1c(SCC(=O)Nc2ccc(F)cc2)nc2ccccc21)NCc1ccc(Cl)cc1
  A: -0.9%; B: .; C: ?; D: ?; E: .; F: .; G: -25%; H: .
CC(=O)NCCC(=O)NCc1ccc(F)cc1
  A: 8.4%; B: 18%[46.1 µM]; C: 0%; D: 19%; E: 4%; F: -1%; G: 12%; H: -4%
Cc1ccc(N(C(=O)Nc2ccccc2)C2=NCC(C)S2)cc1 (stereo not drawn)
  A: 1.6%; B: 10%&10%; C: 2%; D: 1%; E: -34%; F: 5%; G: 68%[activator]; H: 2%
O=S(=O)(/N=C/c1c(O)ccc2ccccc12)c1ccccc1
  A: .; B: ?; C: .; D: 9%; E: 4%; F: -24%; G: -22%; H: 6%
Cc1cccc(NC(=O)CC2SC(=NC3CCCCC3)NC2=O)c1 (stereo not drawn)
  A: -2.1%; B: -9%; C: 4%; D: 0%; E: -13%; F: -2%; G: -28%; H: 7%
CC(=O)N1C(c2ccccc2)CC(=O)OC1c1ccc2c(c1)OCO2 (stereo not drawn)
  A: 1.3%; B: -13%; C: 5%; D: 5%; E: 0%; F: 1%; G: 3%; H: 1%
CCC(C)(C)NC(=O)CN(CC1CCCO1)C(=O)CCC(=O)Nc1nccs1 (stereo not drawn)
  A: 5.0%; B: 13%; C: -8%; D: -7%; E: -2%; F: -1%; G: -20%; H: 10%
CCCCNC(=O)N1CCCC(N(C)CCc2ccc(OC)c(OC)c2)C1 (stereo not drawn)
  A: .; B: .; C: .; D: .; E: 10%; F: 2%; G: -2%; H: 2%
COc1ccc(N2CCN(CC(=O)c3ccccc3)CC2)cc1
  A: .; B: 14%[46.1 µM]; C: .; D: -14%[46.1 µM]; E: -1%; F: -11%; G: 22%; H: -2%
CC(Cc1c[nH]c2ccccc12)C(=O)O (stereo not drawn)
  A: .; B: 0%; C: .; D: .; E: -1%; F: -3%; G: -11%; H: 2%
CC(CC(=O)NCc1ccc(Cl)cc1)S(=O)(=O)c1ccc2c(c1)NC(=O)CO2 (stereo not drawn)
  A: .; B: -28%[46.1 µM]; C: .; D: ?; E: -4%; F: 8%; G: -26%; H: ?
Cc1cc(CNC(=O)c2ccc(C)c([N+](=O)[O-])c2)c2ccccc2n1
  A: .; B: ?; C: .; D: -2%; E: -6%; F: -9%; G: ?; H: -3%
Cc1ccc(NC(=O)CSc2nnc(Cc3cccn3C)n2-c2ccc(F)cc2)c(C)c1
  A: -1.4%; B: .; C: 22%; D: .; E: -8%; F: -4%; G: -19%; H: 6%
O=C(O)CCSCC(=O)c1ccc2c(c1)OCCO2
  A: -9.0%; B: ?; C: -22%; D: -19%; E: -16%; F: -6%; G: -9%; H: 0%
Cc1c(OCC(=O)N[C@@H](Cc2ccccc2)C(=O)O)ccc2c1oc(=O)c1ccccc12
  A: .; B: .; C: .; D: .; E: -10%; F: 14%; G: -16%; H: 0%
CS(=O)(=O)N(CC(=O)NCc1ccccc1Cl)C1CCCCC1
  A: -5.0%; B: 1%; C: -1%; D: -4%; E: -12%; F: -5%; G: 3%; H: 9%
O=c1[nH]c(=S)n(-c2cccc(C(F)(F)F)c2)c(O)c1C=NCCN1CCNCC1
  A: .; B: ?; C: .; D: 0%[46.1 µM]; E: 4%; F: -12%; G: -6%; H: 3%
Cc1sc2ncnc(Sc3nnc4sc5ccccc5n34)c2c1C
  A: 1.2%; B: 1%; C: 2%; D: 0%; E: -4%; F: .; G: .; H: -5%
C=CCn1c(O)c(C=Nc2ccc(N(CC)CC)cc2)c(=O)[nH]c1=O
  A: 4.1%; B: 26%&26%; C: -6%; D: -27%; E: -4%; F: -11%; G: .; H: 4%
CCc1ccc(NC(=O)CSc2nnc(-c3ccccn3)n2C)cc1
  A: 2.2%; B: 2%; C: 5%; D: 1%; E: ?; F: 1%; G: -9%; H: -1%
COc1ccc(/C=C/C(=O)NCCCN2CCCCCC2)cc1
  A: .; B: .; C: .; D: .; E: 1%; F: -4%; G: -16%; H: -4%
COc1cccc(/C=N/NC(=O)c2cccc([N+](=O)[O-])c2)c1OS(=O)(=O)c1ccccc1
  A: 0.0%; B: ?; C: -18%; D: ?; E: -8%; F: 3%; G: 0%; H: -6%
CC(C)c1ccccc1NC(=O)COC(=O)CNC(=O)c1ccc(Br)cc1
  A: -26%; B: ?; C: -5%; D: 7%; E: -5%; F: 2%; G: -18%; H: -11%
O=C(CCc1ccccc1)Nc1nnc(-c2cccs2)o1
  A: -2.8%; B: .; C: -5%; D: .; E: -53%; F: -1%; G: 43%[activator]; H: 1%
Cc1nnc(NC(=O)CSc2nc3c(c(=O)n2C)SC(C)C3)s1 (stereo not drawn)
  A: -11%; B: 11%; C: -1%; D: 11%; E: -12%; F: -2%; G: -27%; H: 5%
COc1cccc(/C=C2\Sc3ccc(C(=O)NCc4cccnc4)cc3N(C)C2=O)c1
  A: .; B: ?; C: .; D: -12%[46.1 µM]; E: .; F: -3%; G: ?; H: -4%
O=C(c1cccc(C(F)(F)F)c1)N1CCN(C2CCCCC2)CC1
  A: 6.3%; B: -21%; C: 10%; D: -7%; E: 3%[9.22 µM]; F: -19%; G: 5%; H: -3%
CCOc1ccc(N2C(=O)CC(N(O)c3ccccc3)C2=O)cc1 (stereo not drawn)
  A: 2.4%; B: 14%; C: 4%; D: -3%; E: 14%; F: -21%; G: 40%[activator]; H: -3%
O=C(CC1NCCc2ccccc21)Nc1ccccc1Cl (stereo not drawn)
  A: .; B: ?; C: .; D: 13%; E: .; F: 0%; G: 44%[activator]; H: 1%
CC(=O)SC1CC(=O)N(c2c(C)cccc2C)C1=O (stereo not drawn)
  A: .; B: 2%[46.1 µM]; C: .; D: -9%[46.1 µM]; E: 2%; F: -11%; G: -15%; H: -1%
CC(C)[C@H](NC(=O)C1CCN(S(=O)(=O)c2ccccc2)CC1)C(=O)NCc1ccc(F)cc1
  A: .; B: .; C: .; D: .; E: 1%; F: 0%; G: 0%; H: 1%
CCOC(=O)C1(Cc2ccccc2)CCN(Cc2cccn2-c2cccnc2)CC1
  A: .; B: .; C: .; D: .; E: -4%; F: -8%; G: ?; H: -1%
c1ccc(-n2nnnc2CN2CCOCC2)cc1
  A: 2.4%; B: .; C: 1%; D: .; E: 20%; F: 15%; G: -15%; H: -15%
COc1ccccc1C(=O)N/C(=C\c1cn(S(=O)(=O)N(C)C)c2ccccc12)C(=O)NCCN1CCOCC1
  A: .; B: .; C: .; D: .; E: 5%; F: 9%; G: 39%[activator]; H: -3%
O=C(O)CCNC(=S)Nc1cccc(F)c1
  A: .; B: .; C: .; D: .; E: ?; F: -8%; G: -19%; H: 1%
COc1cccc(N2C(=O)N(Cc3ccc(C#N)cc3)c3ccccc3S2(=O)=O)c1
  A: -0.5%; B: .; C: ?; D: -29%[46.1 µM]; E: .; F: .; G: -17%; H: .
CCCn1cc(CN2CCC(n3nccc3NC(=O)CCOc3ccccc3)CC2)c(C)n1
  A: .; B: .; C: .; D: .; E: -10%; F: 19%; G: 14%; H: -1%
COC1CCCN(C(=O)c2ccc(OC3CCN(CCc4ccccc4)CC3)cc2)C1 (stereo not drawn)
  A: .; B: ?; C: .; D: -19%; E: 2%; F: -15%; G: -6%; H: 2%
Cc1cccc(NCc2nnc3n2CCCCC3)c1C
  A: 2.0%; B: .; C: 4%; D: 4%[46.1 µM]; E: .; F: .; G: 7%; H: .
CCc1ccc(C2C(C#N)=C(N)SC(N)=C2C#N)cc1
  A: -18%; B: 1%; C: -12%; D: 6%; E: 14%; F: -6%; G: .; H: -8%
O=C(Cc1cccs1)NCc1cccc(C(F)(F)F)c1
  A: .; B: ?; C: .; D: 12%[46.1 µM]; E: 3%; F: 1%; G: 16%; H: -2%
COc1ccc(CCNC(=O)C(NC(=O)OCc2ccccc2)C(C)C)cc1OC (stereo not drawn)
  A: .; B: ?; C: .; D: -15%; E: 0%; F: -16%; G: 0%; H: 1%
COc1ccc(OCCSc2nnc(CC(=O)Nc3cccc(Cl)c3Cl)n2C)cc1
  A: -0.4%; B: ?; C: -8%; D: 45%[14.3 µM]; E: -4%; F: 10%; G: 9%; H: 9%
COCCNC(C(=O)Nc1cc(Cl)cc(Cl)c1)c1ccccc1 (stereo not drawn)
  A: -0.8%; B: -1%; C: -3%; D: 4%; E: -4%; F: -1%; G: -10%; H: -12%
CC(C)(C)CN1CCC(n2nccc2NC(=O)c2ccccc2Cl)CC1
  A: .; B: .; C: .; D: .; E: 0%; F: -8%; G: -2%; H: -5%
CC(C)(C)NC(=O)C(c1ccc(-c2ccccc2)cc1)N(C[C@H]1CC[C@@H]([C@@H]2CC[C@H](CO)O2)O1)C(=O)c1cccc(Cl)c1 (stereo partly drawn)
  A: .; B: 4%; C: .; D: .; E: .; F: 8%; G: -27%; H: -17%
COC(=O)c1ccc(COC(=O)CNC(=O)c2ccc(-c3ccccc3)cc2)cc1
  A: -1.4%; B: 12%; C: ?; D: 24%; E: 4%; F: -10%; G: 23%; H: -19%

# Compound activity (PubChem BioAssay)
